Screening data from PubChem BioAssay.
PINK1 expr mod – A Quantitative High throughput Screen to Identify Chemical Modulators of PINK1 Expression | PINK1 immunofluorescence, high-content cytometry, 24 h | Potency, µM (top dose mostly 76.6 µM), without a hit: at the highest dose activation (PINK1 increase), hits mostly activators | 410,000 tested, 0.2% active | AID 624263, 2012; active = well fitted activation curve with a large enough effect; inconclusive = small, poorly fitted or top-dose-only effect; inactive = flat fitted curve, though single readings scatter; cell line not stated here;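 note: potency is the fitted concentration of half-maximal effect; % of control where 0% means no effect; nearly all actives have a fitted effect of over 65% in size; a mitochondrial uncoupler was the plate control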
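Cells are seeded, rested 12 hours, then given compound at five concentrations or DMSO for 24 hours. After fixation, blocking and antibody staining, PINK1 amount and mitochondrial localization are scored; CCCP serves as control.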
D2 ag – Beta-Arrestin HTS for Positive Allosteric Modulators of the Human D2 Dopamine Receptor: Agonists | activation, % (no concentration beside the values) | 360,000 tested, 0.084% active | AID 624465, 2012 | DiscoveRx PathHunter D2 beta-arrestin, luminescence, 90 min; 100% = 57 uM dopamine signal | D(2) dopamine receptor (Homo sapiens), P14416; in the data active = activation above about 40%; inconclusive = about 15% to 40%; inactive = below about 15%; note: compound concentration not given in the record; the text of the record calls up to 30% inactive
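DiscoveRx PathHunter D2 beta-arrestin cells (2,100/well) attached overnight, then compound-stimulated 90 min at 37 C in HBSS/10 mM HEPES/0.1% Tween-20 buffer; beta-galactosidase complementation read by luminescence after 1 h at ambient temperature. Dopamine 57 uM final (EC100) as control.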
CtBP-E1A inh – qHTS Assay for Inhibitors of the CtBP/E1A Interaction; CtBP / adenovirus E1A interaction (AlphaScreen); 340,000 tested, 0.49% active; AID 651724, 2012; AlphaScreen GST-E1A/His-CtBP binding, 1536-well; stronger effect = lower value; control for the full effect not named in the record; activity change, % (test concentration not listed); in the data active means activity change below about -65%; inconclusive means about -30% to -65%; inactive means above about -30%; note: % is set by controls: 0 for no effect and ±100 for the full control effect; compound concentration not given in the record
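Protein mix (5X: 125 nM each GST-E1A, His-CtBP) was incubated with pinned compound 2 h at 37 deg C in dark, in 50 mM Tris pH 8.0 buffer with 300 mM NaCl. Glutathione donor and nickel acceptor beads followed; AlphaScreen signal read after 1 h.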
TRPML1 agonist – qHTS for Agonists of the Human Mucolipin Transient Receptor Potential 1 (TRPML1) | 410,000 tested, 0.12% active | activation, % (concentration not given with the values) | AID 624414, 2012 | TRPML1-expressing cells, Ca2+ dye fluorescence, FDSS; host cell line not named in the record; reference of the full effect not given here; in the data active = activation above about 50%; inconclusive = about 30% to 50%; inactive = below about 30%; note: 0% is about no effect; the text of the record puts the active cut at 80%
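Tet-induced TRPML1-DL cells, 1,500 per well, cultured overnight, were loaded with a no-wash Ca2+ dye for 45–90 min. Calcium fluorescence was recorded on the FDSS for 110 s after compound addition, before the EC80 agonist (4 uM 54-4) was added.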
TRPML1 inh – qHTS for Inhibitors of the Human Mucolipin Transient Receptor Potential 1 (TRPML1) | 390,000 tested, 0.02% active | TRPML1-inducible cells, Ca2+ dye fluorescence, FDSS; stronger effect = lower value; inhibition of EC80 agonist-evoked calcium signal | activity change, negative = inhibition, % (concentration not given with the values); in the data active means activity change below about -50%; inconclusive means about -30% to -50%; inactive means above about -30%;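 note: stimulus is agonist 54-4 at its EC80 concentration; % is set by controls: 0 for no effect and ±100 for the full control effect; compound concentration not given in the record; the text of the record puts the active cut at -80%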
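Tet-induced TRPML1-DL cells loaded with Ca8 no-wash calcium dye were read kinetically on FDSS. Compound addition was followed by EC80 agonist 54-4 (4 uM final); inhibition was read over 110 s.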
Six1-Eya2 blk – qHTS Assay for Inhibitors of the Six1/Eya2 Interaction; Homeobox protein SIX1 (Homo sapiens) + Protein phosphatase EYA2 (Homo sapiens), …; AlphaScreen GST-Six1/His-Eya2 binding, biochemical; stronger effect = lower value; control for the full effect not named in the record; activity change, % (no concentration beside the values); 360,000 tested, 0.56% active; AID 651725, 2012; in the data active = activity change below about -65%; inconclusive = about -30% to -65%; inactive = above about -30%; note: % is set by controls: 0 for no effect and ±100 for the full control effect; compound concentration not given in the record
Target sequence (O00167 whole entry, looked up): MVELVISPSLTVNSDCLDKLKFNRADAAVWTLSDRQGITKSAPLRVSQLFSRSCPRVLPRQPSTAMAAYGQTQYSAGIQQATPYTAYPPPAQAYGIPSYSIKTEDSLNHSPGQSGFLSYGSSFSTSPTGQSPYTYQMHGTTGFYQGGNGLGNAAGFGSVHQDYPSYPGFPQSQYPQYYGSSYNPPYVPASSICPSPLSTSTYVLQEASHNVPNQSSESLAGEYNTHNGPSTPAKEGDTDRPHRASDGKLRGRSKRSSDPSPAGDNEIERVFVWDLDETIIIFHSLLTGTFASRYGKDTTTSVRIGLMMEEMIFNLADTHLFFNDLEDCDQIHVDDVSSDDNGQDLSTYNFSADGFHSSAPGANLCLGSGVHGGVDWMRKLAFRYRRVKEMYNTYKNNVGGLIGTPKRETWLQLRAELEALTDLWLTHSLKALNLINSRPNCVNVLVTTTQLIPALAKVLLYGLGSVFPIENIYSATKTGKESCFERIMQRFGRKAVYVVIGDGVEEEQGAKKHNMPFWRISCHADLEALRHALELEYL
Target sequence (Q15475 whole entry, looked up): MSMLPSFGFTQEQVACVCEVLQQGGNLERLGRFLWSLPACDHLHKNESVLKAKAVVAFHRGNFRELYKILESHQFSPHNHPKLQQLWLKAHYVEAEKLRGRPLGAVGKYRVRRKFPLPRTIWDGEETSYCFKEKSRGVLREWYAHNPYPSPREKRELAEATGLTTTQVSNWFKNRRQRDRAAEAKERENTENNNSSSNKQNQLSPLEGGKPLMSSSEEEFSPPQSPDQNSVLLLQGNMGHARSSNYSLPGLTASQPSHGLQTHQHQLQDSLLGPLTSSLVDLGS
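Six1/Eya2 binding was read as AlphaScreen signal after compounds were pinned into GST-Six1 plus His-tagged Eya2 (5X stock 250/500 nM) in pH 8.0 Tris/NaCl/TCEP buffer, beads added, then incubated 1 h, 37 C, dark.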
Active calls of the source: *; ? = inconclusive; / = no result given; & = joins results of further samples; [ ] = dose if it differs, or a comment. An unsorted share of the library, and some 1% of all compounds hit somewhere here.

Keys: A = PINK1 expr mod; B = D2 ag; C = CtBP-E1A inh; D = TRPML1 agonist; E = TRPML1 inh; F = Six1-Eya2 blk
(1) Cc1cc(=O)oc2c1c(C)nn2-c1cccc(Cl)c1
  A: 2.1%; B: -1.5; C: -8; D: 0.1; E: 32; F: -8

(2) S=C(Nc1ccc2nsnc2c1)N1CCCCCC1
  A: -1.0%; B: -4.1; C: 2; D: 1.5; E: 14; F: -3

(3) COc1c(Cl)cc(-c2noc(C)c2C(=O)NCCc2ccc(C)cc2)cc1Cl
  A: 1.1%; B: -0.9; C: 13; D: 3.5; E: -16; F: 18

(4) Cc1ccc(-c2nc(CN3CCCCC3CCN3CCCC3=O)c(C)o2)o1 (stereo not given)
  A: 4.3%; B: -20; C: 5; D: 1.2; E: 1; F: -1

(5) CCOc1ccc(N=CC2=C(O)CC(c3ccco3)CC2=O)cc1 (stereo not given)
  A: -1.3%; B: 7.7; C: 4; D: 1.1; E: -7; F: 2

(6) CCOC(=O)c1c(C)[nH]c(C)c1S(=O)(=O)N1CCCC(C(=O)N2CCN(c3ccccc3)CC2)C1 (stereo not given)
  A: 0.9%; B: /; C: /; D: -1.0; E: -16; F: /

(7) Cc1ccc(CNC(=O)Cn2c(=O)cc(C(F)(F)F)c3c(C)nn(C)c32)cc1
  A: 0.2%; B: /; C: /; D: 0.9; E: -2; F: /

(8) C[C@H](O)C#Cc1ccc2c(c1)O[C@@H](CN(C)Cc1ccc(-c3ccccc3)cc1)[C@H](C)CN([C@@H](C)CO)S2(=O)=O
  A: -1.0%; B: -4.2; C: -9; D: 1.8; E: 0; F: -17

(9) Cc1ccc(S(=O)(=O)c2nc(-c3ccc(F)cc3)oc2SCC(=O)NC2CCCCC2)cc1
  A: -1.4%; B: /; C: /; D: 2.0; E: -28; F: /

(10) O=C(CN1CCN(c2nc(-c3ccccc3)cs2)CC1)NCc1ccc2c(c1)OCO2
  A: -4.2%[38.3 µM]; B: 0.6; C: ?; D: 2.9; E: 26; F: -27

(11) CCOc1cc(/C=N/Nc2cccc(C(=O)O)c2)ccc1OC(=O)c1ccccc1
  A: 1.6%; B: -0.7; C: -4; D: 0.6; E: 6; F: -9

(12) CCC(C(=O)NC1CCCC1)n1nc(C)n2c(cc3occc32)c1=O (stereo not given)
  A: 1.2%; B: -2.1; C: 3; D: -1.2; E: 11; F: 10

(13) CCCn1c2ccccc2c2cnn(CC(=O)N(Cc3ccccc3)C(C)C)c(=O)c21
  A: 1.1%; B: /; C: /; D: 2.6; E: -1; F: /

(14) NC(=O)c1ccc(C(F)(F)F)n(Cc2ccccc2Cl)c1=O
  A: 2.3%; B: -1.1; C: -2; D: 4.0; E: 29; F: 6

(15) c1ccc(Cc2nc3ccccc3o2)cc1
  A: ?; B: 1.1; C: 8; D: 3.8; E: 5; F: 13

Rewritten bar-delimited: 11 of the compounds above
No. | canonical_smiles | PINK1 expr mod | D2 ag | CtBP-E1A inh | TRPML1 agonist | TRPML1 inh | Six1-Eya2 blk
5 | CCOc1ccc(N=CC2=C(O)CC(c3ccco3)CC2=O)cc1 (stereo not given) | -1.3% | 7.7 | 4 | 1.1 | -7 | 2
6 | CCOC(=O)c1c(C)[nH]c(C)c1S(=O)(=O)N1CCCC(C(=O)N2CCN(c3ccccc3)CC2)C1 (stereo not given) | 0.9% | / | / | -1.0 | -16 | /
7 | Cc1ccc(CNC(=O)Cn2c(=O)cc(C(F)(F)F)c3c(C)nn(C)c32)cc1 | 0.2% | / | / | 0.9 | -2 | /
8 | C[C@H](O)C#Cc1ccc2c(c1)O[C@@H](CN(C)Cc1ccc(-c3ccccc3)cc1)[C@H](C)CN([C@@H](C)CO)S2(=O)=O | -1.0% | -4.2 | -9 | 1.8 | 0 | -17
9 | Cc1ccc(S(=O)(=O)c2nc(-c3ccc(F)cc3)oc2SCC(=O)NC2CCCCC2)cc1 | -1.4% | / | / | 2.0 | -28 | /
10 | O=C(CN1CCN(c2nc(-c3ccccc3)cs2)CC1)NCc1ccc2c(c1)OCO2 | -4.2%[38.3 µM] | 0.6 | ? | 2.9 | 26 | -27
11 | CCOc1cc(/C=N/Nc2cccc(C(=O)O)c2)ccc1OC(=O)c1ccccc1 | 1.6% | -0.7 | -4 | 0.6 | 6 | -9
12 | CCC(C(=O)NC1CCCC1)n1nc(C)n2c(cc3occc32)c1=O (stereo not given) | 1.2% | -2.1 | 3 | -1.2 | 11 | 10
13 | CCCn1c2ccccc2c2cnn(CC(=O)N(Cc3ccccc3)C(C)C)c(=O)c21 | 1.1% | / | / | 2.6 | -1 | /
14 | NC(=O)c1ccc(C(F)(F)F)n(Cc2ccccc2Cl)c1=O | 2.3% | -1.1 | -2 | 4.0 | 29 | 6
15 | c1ccc(Cc2nc3ccccc3o2)cc1 | ? | 1.1 | 8 | 3.8 | 5 | 13

Single records, as listed above:
CCOc1cc(/C=N/Nc2cccc(C(=O)O)c2)ccc1OC(=O)c1ccccc1 across the screens: PINK1 expr mod: 1.6%; D2 ag: -0.7; CtBP-E1A inh: -4; TRPML1 agonist: 0.6; TRPML1 inh: 6; Six1-Eya2 blk: -9
C[C@H](O)C#Cc1ccc2c(c1)O[C@@H](CN(C)Cc1ccc(-c3ccccc3)cc1)[C@H](C)CN([C@@H](C)CO)S2(=O)=O across the screens: PINK1 expr mod: -1.0%; D2 ag: -4.2; CtBP-E1A inh: -9; TRPML1 agonist: 1.8; TRPML1 inh: 0; Six1-Eya2 blk: -17

Following part
Keys: A = PINK1 expr mod; B = D2 ag; C = CtBP-E1A inh; D = TRPML1 agonist; E = TRPML1 inh; F = Six1-Eya2 blk
(16) CCC(CC)C(=O)Nc1nnc(S(=O)(=O)N2CCc3ccccc32)s1
  A: 6.7%&1.1%; B: -1.8; C: 4; D: 9.4&9.4; E: 8&-3; F: -1

(17) Cc1nc([N+](=O)[O-])c(NCCCO)n1Cc1ccccc1
  A: 6.6%; B: -2.9; C: 4; D: -0.4; E: 13; F: 2

(18) O=C(C[C@H]1C/C=C\CC[C@@H](Cc2ccc(F)cc2)C(=O)OC[C@H]2CCCN2C1=O)NCCO
  A: 0.9%; B: -4.4; C: 7; D: -0.1; E: 10; F: -3

(19) COc1ccc(-c2nnn(CC(=O)NCCc3c[nH]c4ccccc34)n2)cc1OC
  A: 2.1%; B: 0.7; C: -2; D: 0.0; E: -1; F: -11

(20) Cc1ccsc1C(=O)N1CCCC(CO)(Cc2ccccc2F)C1 (stereo not given)
  A: -0.1%; B: -1.7; C: 3; D: 1.7; E: -14; F: -6

(21) COc1cc(CNCCNC(=O)c2nonc2N)ccc1OCc1ccc(Cl)nc1
  A: -0.6%; B: -4.4; C: 4; D: 4.1; E: 0; F: 2

(22) Cc1n[nH]c(=O)nc1NCc1ccco1
  A: -0.5%; B: -2.0; C: -5; D: -0.3; E: -15; F: 11

(23) CCOC(=O)CSc1nnnn1-c1cc(OC)ccc1OC
  A: -3.4%[38.3 µM]; B: -0.8; C: -6; D: 0.0; E: 5; F: 0

(24) CCN(CC)CCCNC(=O)c1cc(Sc2nnc(C)s2)nc2ccccc12
  A: 0.7%; B: 0.3; C: 2; D: 0.2; E: 3; F: 1

(25) O=C(NCc1ccc2c(c1)OCO2)c1ccc(Br)o1
  A: 0.5%; B: 6.7; C: 3; D: -1.0; E: 18; F: 5

(26) COc1cc2ccccc2cc1C(=O)Nc1ccc(CN2CCOCC2)cc1
  A: 1.2%; B: 2.6; C: -7; D: -0.2; E: -4; F: -11

(27) O=c1[nH]c2ccc(S(=O)(=O)N3CCN(c4ccccc4)CC3)cc2[nH]c1=O
  A: 1.3%[38.3 µM]; B: 1.8; C: -10; D: -0.3; E: -3; F: -20

(28) CCOC(=O)N1CCN(C(=O)c2ccc(NC(=O)c3ccc(C)cc3)cc2)CC1
  A: -2.1%; B: 3.7; C: 0; D: 2.6; E: 45; F: 11

(29) O=C(O)C1CC(O)CN1S(=O)(=O)c1cccs1 (stereo not given)
  A: 0.3%; B: -1.9; C: -13; D: 0.7; E: 1; F: 5

(30) Cc1ccc(S(=O)(=O)N2CCN(C(=O)COC(=O)CCOc3ccccc3C)CC2)c(C)c1
  A: 4.1%; B: -3.6; C: 1; D: -0.3; E: 2; F: 0

(31) N#CNC(=Nc1ccccc1F)SCc1ccc(C(=O)O)cc1
  A: 2.2%; B: 3.3; C: 8; D: -0.8; E: 14; F: 10

(32) CC(C)=NOC(=O)c1ccc(-c2ccccc2)cc1
  A: 1.1%; B: 2.8; C: 12; D: 1.9; E: 34; F: -1

(33) CCCCC(OC(=O)c1cc2occc2n1C)C(=O)NCC1CCCO1 (stereo not given)
  A: /; B: -2.1; C: 11; D: -0.3; E: 6; F: -2

(34) CC1CCN(c2ccc(C(=O)NCc3ccc4c(c3)OCO4)cc2[N+](=O)[O-])CC1
  A: 0.1%; B: 0.3; C: -26; D: 1.6; E: 10; F: ?

(35) Cc1[nH]c2ccc(C(=O)OCCN(C)C)cc2c1C
  A: -0.6%; B: 0.7; C: 1; D: -0.7; E: 11; F: -15

(36) CCCCC(=O)Nc1cnc(NC(=O)c2cccs2)cc1C
  A: 1.4%; B: 1.6; C: /; D: 0.2; E: -7; F: -4

(37) COc1ccccc1CNC(=O)c1ccc2c(=O)n3c(nc2c1)CCCCC3
  A: -0.4%; B: 1.3; C: 3; D: 1.2; E: 26; F: -1

(38) O=C(N/N=C/c1ccc(Cl)cc1Cl)c1ccncc1
  A: 1.5%; B: 2.2; C: /; D: /; E: /; F: 5

(39) CC(C)CCn1c(=O)c2sccc2n2c(CCCC(=O)NC3CCC(C)CC3)nnc12 (stereo not given)
  A: 0.8%; B: /; C: /; D: -0.6; E: 2; F: /
